LANA-H2B inh – blocks KSHV LANA binding to histone H2A/H2B; Q9QR71; cell-free LANA-H2A/H2B peptide, fluorescence polarization; inhibition, % (concentration not given with the values); actives 0.6% (n = 320,000); in the data active means inhibition mostly above about 10%, no sharp cut-off; inactive means mostly below about 6.7%;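 further: stock transfer was 7.5 nL into about 10 µL; 0% = median of vehicle wells and 100% = median of positive control wells; one replicate is shown; the record names a cut of 25% in any replicate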
HNF4A DNA FP – change in binding of human HNF4 alpha to DNA; actives 0.3% (n = 360,000); activity change, % at 10 µM; HNF4a-FITC DNA binding, fluorescence polarization, 1 h; P41235; in the data active means activity change above about 30%, passing the limit was not always enough;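 further: controls were the assay level and a saturating level of protein; the project sought stronger binding though the title names inhibitors; some compounds called inactive have numbers as strong as hits; positive values seem to mean higher polarization but the record does not say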
B2AR ag – activates human beta-2 adrenergic receptor causing internalization. P07550. Am2.2-beta2AR cells, FAP receptor internalization, flow cytometry; reference of the scale not given here. response, % (test concentration not listed). actives 0.43% (n = 340,000). AID 504454;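 active means response above a set limit, near 3 SD of response in nonfluorescent compounds, cut at about 42% in these data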;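 further: stock transfer was 100 nL into about 11 µL; a reference agonist was the positive control; negative values mostly stem from fluorescent compounds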
Target sequence (P07550 whole entry, looked up): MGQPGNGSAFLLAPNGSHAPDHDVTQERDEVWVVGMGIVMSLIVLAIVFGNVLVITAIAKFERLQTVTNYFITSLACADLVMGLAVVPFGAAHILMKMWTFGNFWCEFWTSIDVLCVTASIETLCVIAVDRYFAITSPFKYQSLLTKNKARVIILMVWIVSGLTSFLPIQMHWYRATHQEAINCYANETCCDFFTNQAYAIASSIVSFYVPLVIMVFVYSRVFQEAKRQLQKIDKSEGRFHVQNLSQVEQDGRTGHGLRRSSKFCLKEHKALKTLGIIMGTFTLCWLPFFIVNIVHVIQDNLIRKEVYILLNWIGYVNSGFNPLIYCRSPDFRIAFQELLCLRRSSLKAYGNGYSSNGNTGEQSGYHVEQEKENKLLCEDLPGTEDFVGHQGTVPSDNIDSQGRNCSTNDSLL
E coli growth – blocks Escherichia coli growth. OD600, 23 h; stronger effect = lower value. OD600 absorbance (no concentration beside the values). actives 0.21% (n = 330,000);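 active means OD600 absorbance below the run mean of sample wells minus 3.6 SD, in any replicate, cut at about 0.56 in these data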;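 further: stock transfer was 300 nL into about 60 µL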
UCH37 DUB inh – human UCH37 deubiquitinating enzyme inhibition; Q9Y5K5; purified proteasome/UCH37, Ub-AMC cleavage fluorescence; inhibition, % (no concentration beside the values); actives 0.33% (n = 330,000); AID 588478;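 active means mean of two replicates above 20%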;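 further: 0% = compound-free wells with enzyme and 100% = wells lacking proteasome; stock transfer was 100 nL into about 20 µL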
Target sequence (Q9Y5K5 whole entry, looked up): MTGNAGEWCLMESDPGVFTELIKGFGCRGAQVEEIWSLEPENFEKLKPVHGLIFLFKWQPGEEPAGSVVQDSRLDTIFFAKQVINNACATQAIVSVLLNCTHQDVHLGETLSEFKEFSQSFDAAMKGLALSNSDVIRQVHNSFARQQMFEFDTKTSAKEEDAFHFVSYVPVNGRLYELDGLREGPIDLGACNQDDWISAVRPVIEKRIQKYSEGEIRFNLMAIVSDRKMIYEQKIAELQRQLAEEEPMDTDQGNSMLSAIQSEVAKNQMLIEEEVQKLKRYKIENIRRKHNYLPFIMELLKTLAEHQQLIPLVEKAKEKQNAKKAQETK
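Assay system: Proteasome-bound UCH37. Buffer or medium: pH 7.4 Tris-HCl (50 mM) with ovalbumin, ATP-MgCl2, DTT. Incubation: 30 min preincubation with enzyme, 25 min cleavage at room temperature. Measured by: fluorescence, ex 355 nm, em 460 nm. Read-out basis: percent inhibition. Control set: wells without proteasome as full block, compound-free enzyme plus substrate as uninhibited.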
ALR H2O2 inh – human ALR oxidase inhibition via reduced H2O2; purified ALR, DTT oxidation, H2O2 HRP-luminol luminescence; inhibition, % (concentration not given with the values); actives 3.8% (n = 290,000); AID 485317;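 active means mean and each replicate at 75% or more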;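 further: stock transfer was 7.5 nL into about 7.5 µL; 0% = neutral wells and 100% = wells with inactivated enzyme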
Target sequence (P55789 whole entry, looked up): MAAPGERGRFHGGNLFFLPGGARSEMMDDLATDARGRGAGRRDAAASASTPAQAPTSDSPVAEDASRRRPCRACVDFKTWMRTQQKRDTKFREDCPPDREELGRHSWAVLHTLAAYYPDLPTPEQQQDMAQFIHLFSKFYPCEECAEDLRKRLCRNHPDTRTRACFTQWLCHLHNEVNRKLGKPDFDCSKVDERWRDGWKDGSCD
FGF22 binding – binders of recombinant human FGF22 by thermal shift; Q9HCT0; SYPRO orange fluorescence; percent of sucrose octasulfate shift, DMSO zero; calls only at 9.99 µM; actives 1.5% (n = 340,000); AID 651658;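 active means melting point raised past a set limit in the mean and every replicate; three in four hits are not shown here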
An asterisk follows results filed as active; i = inactive; / = no result given.

SMILES	LANA-H2B inh	HNF4A DNA FP	B2AR ag	E coli growth	UCH37 DUB inh	ALR H2O2 inh	FGF22 binding
Nn1c(SCC(=O)NC(=O)Nc2ccc3c(c2)OCCO3)nnc1C1CC1	-2.3	-0.8	8	0.66	-1.5	-5	i
O=C(c1cccc(Cl)c1)N1CCCC(c2ccc(Cl)cc2)=N1	-0.7	-2.2	-2	0.67	2.3	1	i
COc1ccc(/C=C/C(=O)OCC(=O)NC2CCCCC2C)c(OC)c1 (stereo unspecified)	1.5	2.6	-7	0.69	-0.8	/	i
Nc1nc(Sc2ccc(C(F)(F)F)cc2[N+](=O)[O-])n[nH]1	1.6	-0.7	-20	0.66	2.7	-24	/
CC[C@]12c3[nH]c4ccc(Cl)cc4c3CCN1C(=O)[C@@H](CC(=O)NC/C=C(\C)CCC=C(C)C)C[C@@H]2C(=O)N1CCN(C(=O)c2ccco2)CC1	/	-3.0	-1	0.7	2.0	/	i
Cc1ccc(C)c(NC(=O)CN(C)C(=O)c2cccc(S(=O)(=O)N3CCN(Cc4ccccc4)CC3)c2)c1	-3.4	-3.7	-3	0.69	2.0	-5	i
CC1CCCC(C)N1S(=O)(=O)c1ccc(S(=O)(=O)NCCc2ccncc2)cc1 (stereo unspecified)	5.4	-1.8	4	0.68	2.7	0	i
COc1ccc(C(=O)NCC(c2ccc3c(c2)OCO3)N2CCN(c3ccc(OC)cc3)CC2)cc1 (stereo unspecified)	-1.2	1.9	3	0.66	-1.2	26	i
Cc1ccc(-n2c(SCC(=O)c3c(N)n(C4CC4)c(=O)[nH]c3=O)nnc2N2CCOCC2)cc1	/	-0.2	-12	0.65	2.9	/	i
CCOC(=O)c1cc(OC(=O)c2cccc([N+](=O)[O-])c2)n(-c2ccccc2)n1	7.6	1.2	11	0.66	-1.3	44	/
Cc1ccccc1NC(=S)N(CCc1c(C)[nH]c2ccc(F)cc12)Cc1ccncc1	2.6	-3.0	5	0.69	4.4	/	i
Cc1ccc(N(C(C)C(=O)Nc2ccccc2C(=O)N2CCOCC2)S(C)(=O)=O)cc1C (stereo unspecified)	-0.2	-1.3	0	0.78	0.2	0	/
CC1CCN(c2ccc3nnc(CCC(=O)NCc4ccco4)n3n2)CC1	-0.8	0.8	-7	0.72	1.3	2	i
Cc1ccc(O)c(-c2cc3ccccc3[nH]2)c1	-3.1	3.5	0	0.62	-65	99*	/
COC(=O)c1ccc(N2NC(=O)/C(=C/c3ccc(-c4ccc(Cl)c(C(=O)O)c4)o3)C2=O)cc1	/	-32	4	/	12	/	i
Cc1cccc(S(=O)(=O)Nc2ccc(-c3nc4ccc(C)cc4s3)cc2)c1	0.7	7.8	21	0.69	-151	4	i
CCCCC[n+]1ccn(C2=C([O-])c3ccccc3C(=O)/C2=N\S(=O)(=O)c2ccc(Br)cc2)c1	-8.0	-1.2	-1	0.67	6.7	/	i
COc1ccc(C=O)cc1CN1CCCN(Cc2ccc(Cl)cc2)S1(=O)=O	0.4	-0.8	-8	0.68	2.9	-7	i
COc1ccc(/C=N/N2CCOCC2)cc1COc1ccc(F)cc1	4.1	-0.9	-8	/	/	-17	i
C[C@@H](Nc1nc(-c2ccccc2)nc2c1oc1ccccc12)C(=O)O	-1.4	8.3	-15	0.73	4.4	5	i
Cn1c(N)c(C(=O)COC(=O)c2nc(Cl)ccc2Cl)c(=O)n(C)c1=O	-0.1	0.0	-9	0.64	-3.2	0	i
CC(=O)c1ccc(N2CCN(S(=O)(=O)c3c(C(=O)N4CCCCC4)c(C)n(C)c3C)CC2)cc1	-1.3	1.5	3	0.63	2.4	60	i
COC(=O)CCCC1=CC2=C(c3ccccc3)C(=O)C(C)(OC(=O)C3CCCC3)C(=O)C2=CN1CCc1ccccn1 (stereo unspecified)	2.4	-1.9	9	0.69	0.2	-27	i
CCOC(=O)c1ccccc1NC(=O)COC(=O)C1CC(=O)N(CCc2ccccc2)C1 (stereo unspecified)	-6.3	0.4	9	0.69	5.4	-5	i
FC(F)(F)c1nnc2sc(-c3ccco3)nn12	-3.7	-1.5	0	0.72	1.6	-7	/
CCCN1/C(=C(/C#N)C2=NS(=O)(=O)c3ccccc32)N(C)c2ccccc21	-4.9	-0.4	-14	0.71	14	-7	i
C=CCn1c(SCC(=O)Nc2ccc3c(c2)OCO3)nnc1-c1ccccc1	2.8	0.5	-5	0.67	0.6	-14	/
O=C(Nc1cc(C(F)(F)F)ccc1N1CCCC1)c1ccc2c(c1)OCO2	-2.0	1.9	-1	0.68	3.9	1	/
CCOC(=O)c1cc(C)n(Cc2ccccc2)c1C	-7.9	1.8	4	0.66	3.6	2	/
O=C(CN1CCCCC1)Nc1nc(-c2ccccc2)cs1	-3.7	-0.5	-3	0.63	0.0	/	i
N#Cc1cccc(CSc2nnc(CCCO)n2-c2ccccc2)c1	-1.4	1.8	-1	0.68	3.8	-1	/
O=C(NC(Cc1ccc(O)cc1)C(=O)O)c1ccc2c(c1)OCO2 (stereo unspecified)	2.6	0.7	-2	0.68	1.2	20	i
COCC(C)NCc1cccc(C)c1 (stereo unspecified)	-0.7	1.0	1	0.73	0.9	-4	/
NC(=O)c1ccccc1NC(=S)NC(=O)CCc1ccccc1	-2.8	-2.1	18	0.67	-2.7	/	/
Cc1ccccc1-c1nc(CN2CCCC2c2ccc(F)cc2)c(C)o1 (stereo unspecified)	-0.8	1.3	4	0.68	0.9	-2	i
CC(C)(C)n1nnnc1C(c1cc2cc3c(cc2[nH]c1=O)OCCO3)N1CCSCC1 (stereo unspecified)	0.4	-2.9	-3	0.73	-254	-11	/
CC(C)Oc1cccc(C(=O)NC(=S)Nc2ccc(N3CCN(C)CC3)cc2)c1	4.4	5.1	-12	0.59	3.1	44	i
Cc1cccc(C)c1NC(=O)CNC(=O)Cc1ccccc1[N+](=O)[O-]	-2.7	-2.2	-5	0.71	0.8	2	i
O=c1cc(-c2ccc(O)c(O)c2)oc2ccc3ccccc3c12	/	-5.6	9	0.68	2.5	/	/
Cc1nc(NC(=S)NC(=O)c2cccs2)sc1C(=O)N(C)C	-3.5	1.5	-12	0.66	13	6	i
O=C(Nc1nccs1)C1CC=CCC1 (stereo unspecified)	2.1	-0.2	-13	0.64	6.0	1	i
COc1cc2c(cc1OC)CN(C(=O)CCCOc1ccc(Cl)cc1Cl)CC2	0.1	2.3	-4	0.65	2.0	20	/
C#CCOc1ccc2c(C)cc(=O)oc2c1	-20	5.3	-4	/	/	/	i
CC/C(Cc1ccccc1)=N/NC(=O)CNC(=O)c1ccc(Cl)cc1Cl	/	-1.4	-6	/	/	/	i
CC1(C)Cc2cccc(OCC(=O)Nc3ccccc3N3CCOCC3)c2O1	-0.4	1.6	5	0.68	0.1	4	/
CCN1CC(CN(C)Cc2nc(Cc3ccccc3)no2)CC1=O (stereo unspecified)	-1.0	-2.6	4	0.71	2.7	-8	i
CC(=O)NCCc1nc2ccccc2[nH]1	-3.2	0.8	-4	0.72	2.6	/	i
Cc1ccc(NC(=O)c2cc(-c3ccccc3)nn2-c2ccccc2)cc1	-2.2	2.3	10	0.64	1.0	-3	i
O=C(CC1CCOCC1)Nc1ccc(Cl)c(Cl)c1	-0.1	2.9	0	0.68	2.9	/	i
COc1ccc(NC(=O)CSc2ccc3nnc(CCNC(=O)c4ccccc4)n3n2)cc1OC	-0.2	-1.9	-8	0.68	-0.9	-16	i
O=C(CCCN1C(=O)CCC1=O)Nc1ccc(Cl)c(C(F)(F)F)c1	1.4	-0.8	-5	0.7	2.7	-2	/
O=C(NC(=S)Nc1ccc(Br)cn1)c1cncc(Br)c1	1.6	0.6	-8	0.68	4.9	-19	/
COc1ccccc1C(=O)Nc1ccc(C)c(S(=O)(=O)N2CCCCC2)c1	/	-2.8	6	0.7	3.5	/	i
CCCCN(C)CCC(=O)Nc1ccc2c(c1)CCC2	-1.8	0.9	1	0.69	2.6	-8	i
Cc1ccc2nc(SCC(=O)N3CCCCCC3)nc(=O)n2c1	-14	0.5	-7	0.62	-2.8	-2	i
Cc1noc(C(=O)NCc2ccccc2)c1Cl	0.5	1.9	3	0.69	4.0	/	i
Cc1cccc(S(=O)(=O)N2CCC(CO)(Cc3ccccc3)CC2)c1	4.3	0.5	7	0.68	2.8	-11	i
CCOC(=O)CSc1cc(CSc2ccccc2)nc(-c2ccccc2)n1	-0.5	1.9	3	0.79	4.8	-12	/
COc1ccc(C2N=C(c3ccccc3)NO2)cc1OC (stereo unspecified)	1.5	3.3	3	0.66	-0.9	-16	i
CCN(CC)C(=O)CSc1nc2cccnc2n1-c1ccccc1OC	1.4	1.6	-10	0.75	-1.8	-1	/
Going on with the list:
SMILES	LANA-H2B inh	HNF4A DNA FP	B2AR ag	E coli growth	UCH37 DUB inh	ALR H2O2 inh	FGF22 binding
CCOC(=O)/C(C#N)=C\c1cccnc1	-3.7	2.2	3	0.65	3.1	/	i
COC(=O)c1ccccc1C(=O)N1CCOCCN(C(=O)c2ccccc2C(=O)OC)CCOCC1	-0.4	8.5	3	0.69	-0.5	-1	/
CC(=O)N1c2ccc(S(=O)(=O)N(C)CC(=O)NCc3ccccc3)cc2CC1C (stereo unspecified)	13	-4.0	1	0.63	-0.6	-2	i
CCOC(=O)Cc1cc(=O)c2cc(C)ccc2[nH]1	-11	3.9	9	0.61	4.6	-1	i
Cc1nn(Cc2ccccc2)c(C)c1/C=N/NC(=O)c1cccnc1	4.9	2.8	3	/	/	-9	i
CCC(OC(=O)c1ccco1)C(=O)NCc1ccco1 (stereo unspecified)	-5.9	5.0	3	0.72	-2.4	2	/
COc1ccc(-c2cc(=O)oc3cc(OCC(=O)NCCCn4ccnc4)ccc23)cc1	3.0	2.1	-15	0.69	0.4	3	i
CCc1ccc(C(=O)CSc2nnc(C)c(=O)[nH]2)cc1	-1.4	2.0	7	0.73	0.9	-8	i
CCCn1c(OC)nc2c1c(=O)n(C)c(=O)n2C	1.2	-0.4	0	0.73	4.6	/	i
COc1ccc(NC(=O)Cn2nnc(C(=O)NCCc3ccccc3)c2N)cc1	-5.2	5.4	-4	0.72	2.0	3	i
COc1ccccc1N1CCN(C2CCCN(C(=O)CCc3cnccn3)C2)CC1 (stereo unspecified)	2.0	2.5	-8	0.67	1.1	54	i
CC(C)NC(=O)NC(=O)CSc1nncs1	-6.9	-3.3	4	0.67	2.8	-15	i
COc1cccc(OC)c1C(=O)Nc1ccc(C(=O)NCc2ccccc2)cc1	-4.9	6.9	-1	0.7	0.3	3	i
COc1cccc(CNC(=O)CSCC(=O)Nc2cc(C)on2)c1	-2.3	3.3	3	0.63	4.9	/	i

Assay outcomes (PubChem BioAssay)

An excerpt; count on the stated rates, not on these rows.
